# SARS PLpro yeast = inhibitors of SARS-CoV papain-like protease in yeast; S. cerevisiae expressing SARS-CoV PLpro, growth rescue; control for the full effect not named in the record; 0.19% of 330,000 active; AID 485353; Potency, µM (doses to about 32.9 µM), for inactives: top-dose activity, positive = growth rescue; further: 0% is about no effect; nearly all actives have a fitted effect of over 55% in size; growth read by luminescence after 48 h
# RE007 growth inh = less growth of the S. pombe RE007 Vpr strain; S. pombe RE007 Vpr strain, BacTiter-Glo ATP luminescence, 24 h; control for the full effect not named in the record; Potency, µM (titrated, usually from 92.2 µM), inactives show top-dose activity change, negative = less growth; 0.21% of 360,000 active; AID 651644; active = well fitted falling curve with a large enough effect; inconclusive = small, poorly fitted or top-dose-only effect; inactive = no such curve, though single readings can be large or run the other way;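 further: on the % scale 0 is the no-effect control and ±100 the full control effect; nearly all actives have a fitted effect of over 50% in size; the assay follows cell death caused by Vpr and the record does not say whether a fall means rescue or toxicity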
#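 Fission yeast strain RE007, carrying one chromosomally integrated HIV-1 vpr copy, was seeded at OD 0.01 in PMG+AL medium with 23 nL pinned compound. After 24 h at 30 °C and 99% humidity, viability was read by BacTiter-Glo luminescence.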
# Cruzain inh Det = cruzain (T. cruzi) inhibition with detergent; purified cruzain, Z-FR-AMC fluorescence, 0.01% Triton; Potency, µM, for the others: max response, negative = inhibition, usual class: inhibitors; P25779; 0.43% of 200,000 active; active means well fitted curve in the direction sought with a large enough effect; inconclusive means small, poorly fitted or top-dose-only effect, or another doubt; inactive means no such curve, though single readings can be large; an effect the other way counts as inactive or inconclusive;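 further: plate controls were neutral wells for no effect and buffer without enzyme for full effect; nearly all actives have a fitted effect of over 40% in size; top concentration of the series not given in the record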
# Target sequence (P25779 123-467 limits assumed): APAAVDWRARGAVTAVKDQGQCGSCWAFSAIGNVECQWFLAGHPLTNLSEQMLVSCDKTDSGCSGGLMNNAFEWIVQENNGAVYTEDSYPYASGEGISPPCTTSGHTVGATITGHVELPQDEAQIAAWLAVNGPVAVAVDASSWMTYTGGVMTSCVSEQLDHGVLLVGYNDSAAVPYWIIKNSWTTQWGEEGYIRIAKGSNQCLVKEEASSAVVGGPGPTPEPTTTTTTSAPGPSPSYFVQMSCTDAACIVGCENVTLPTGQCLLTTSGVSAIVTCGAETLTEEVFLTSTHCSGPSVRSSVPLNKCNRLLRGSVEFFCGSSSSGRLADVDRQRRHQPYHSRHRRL
#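 Sodium acetate buffer (100 mM, pH 5.5) containing 5 mM DTT and 0.01% Triton X-100 hosted 1.5 nM cruzain and test compound for 15 min at room temperature. Cleavage of 2 uM Z-FR-AMC was then tracked by fluorescence.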
# Marburg entry inh = inhibitors of Marburg virus binding or cell entry | Marburg virus pseudotyped entry inhibition, cell reporter; control for the full effect not named in the record; about a third of the inactives were read at about 46 µM | Potency, µM (top dose mostly 37.8 µM), for inactives: at the top dose activity change, negative = inhibition, actives largely listed as inhibitors | 1.8% of 300,000 active | AID 540276; active = well fitted inhibition curve with a large enough effect; inconclusive = small, poorly fitted or top-dose-only effect, or effect the other way; inactive = flat fitted curve, though single readings scatter; tested in HEK293 cells; about a fifth of its hits are not listed in these tables; further: on the % scale 0 is the no-effect control and ±100 the full control effect; luciferase read-out
# Cruzain inh noDet = cruzain (T. cruzi) inhibition without detergent | P25779 | purified cruzain, Z-FR-AMC fluorescence, no detergent | Potency, µM, inactives show max response, negative = inhibition, usual class: inhibitors | 2.3% of 200,000 active; active means well fitted curve in the direction sought with a large enough effect; inconclusive means small, poorly fitted or top-dose-only effect, or another doubt; inactive means no such curve, though single readings can be large; an effect the other way counts as inactive or inconclusive;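 further: plate controls were enzyme without inhibitor for no effect and buffer without enzyme for full effect; nearly all actives have a fitted effect of over 40% in size; top concentration of the series not given in the record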
#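 Purified cruzain at 1.5 nM, pre-incubated 15 min with compound at room temperature in 100 mM sodium acetate pH 5.5, 5 mM DTT, 0.00005% Triton X-100. Reaction started with 2 uM Z-FR-AMC; AMC fluorescence increase over 60 s gives rate.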
# NS1 inh = influenza NS1 inhibition; 0.4% of 270,000 active; Potency, µM (highest dose often 46.1 µM), for inactives: top-dose activity, positive = more growth; S. cerevisiae slowed by influenza A NS1, growth recovery by OD600; further: actives are rising curves; nearly all actives have a fitted effect of over 50% in size
#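 Growth recovery, yeast-based: influenza A NS1 expressed in S. cerevisiae causes slow growth, and suppressors are detected by OD600. The parent strain without NS1 is used as positive control.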
# LASV entry inh = blocks Lassa virus binding to or entry into cells. Potency, µM (doses to about 37.9 µM), inactives show at the highest dose activity change, negative = inhibition, most hits filed as inhibitors. Lassa virus pseudotype entry inhibition, cell reporter; control for the full effect not named in the record. 1.2% of 300,000 active; active means well fitted inhibition curve with a large enough effect; inconclusive means small, poorly fitted or top-dose-only effect, or effect the other way; inactive means flat fitted curve, though single readings scatter; tested in HEK293 cells; further: on the % scale 0 is the no-effect control and ±100 the full control effect; nearly all actives have a fitted effect of over 50% in size; luciferase read-out
# StopGo reporter = lowers the luciferase signal of an FMDV 2A StopGo reporter | 1.2% of 410,000 active | human cells with a luciferase reporter of 2A StopGo recoding; control for the full effect not named in the record | Potency, µM (series often up to 57.9 µM), for the others: at the highest dose signal change, negative = less light | AID 1159524; active = well fitted falling curve with a large enough effect; inconclusive = small, poorly fitted or top-dose-only effect; inactive = no such curve, though single readings can be large or run the other way; tested in HEK293T cells; further: on the % scale 0 is the no-effect control and ±100 the full control effect; nearly all actives have a fitted effect of over 45% in size; luciferase light after 4 h
# * hit, by the source's call; u = inconclusive; x = no result given; & = joins results of further samples; [ ] = dose if it differs, or a comment. Unless noted, the call rests on the fitted dose curve; in most records, active means well fitted rising curve with a large enough effect; inconclusive means small, poorly fitted or top-dose-only effect; inactive means no such curve, though single readings can be large or run the other way. Potency means the concentration at half of the fitted maximal effect. An unsorted share of the library; 4.7% or so of the library scored in one or more.
SMILES,SARS PLpro yeast,RE007 growth inh,Cruzain inh Det,Marburg entry inh,Cruzain inh noDet,NS1 inh,LASV entry inh,StopGo reporter
COCCNC(=O)c1ccc2c3n(nc2c1)-c1ccccc1CO3,4%,-28%,x,x,x,-2%,x,24%
COc1ccc(CCNC(=O)Cc2c(C)c3cc(OC)c(OC)cc3oc2=O)cc1,x,x,-12%,-18%[46.1 µM],-25%,x,0%[46.1 µM],5%
Cc1cccc(NC(=S)N2CCN(S(=O)(=O)c3cccc(F)c3)CC2)c1,0%,6%,x,u,x,x,0%,2%
O=C(CSc1nnc(-c2cccnc2)n1Cc1ccco1)c1ccc(Cl)c(Cl)c1,3%,-5%,-18%,0%,22%,1%,-2%,-13%
CCSc1nc2c(c(=O)[nH]1)C(C(C)C)C(C#N)=C(N)O2 (stereo not given),1%,-12%,-1.5%,x,8%,-1%,x,-12%
Cc1csc(NC(=O)c2cc3c(s2)CCCC3)n1,-30%,x,-16%,x,u,-26%,x,-63%
CC(NC(=O)C1CCN(C(=O)[C@@H]2Cc3ccccc3CN2C(=O)OC(C)(C)C)CC1)c1ccccc1 (stereo not given in full),-11%,-12%,x,x,x,-2%,x,-1%
COc1ccc(/C=N/N(CCC(=O)NC(C)(C)C)C2=NS(=O)(=O)c3ccccc32)cc1,-1%,10%,x,u,x,-4%,1%,-17%
COc1ccc(-c2ccc(SCC(=O)c3cccs3)nn2)cc1,-2%,0%,x,u,x,-6%,u,-2%
O=C(COc1coc(CN2CCc3ccccc32)cc1=O)N1CCCCC1,-1%,2%,x,2%[46.1 µM],x,x,9%,1%
Cn1cc(C(=O)N/N=C/C2=C(N3CCOCC3)C(=C/c3ccc([N+](=O)[O-])cc3)/CC2)ccc1=O,x,-11%,x,3%[46.1 µM],x,x,-11%,-13%
O=C(CN1CCCC1)Nc1ccc(Cl)cc1C(=O)c1ccccc1,-4%,-15%,x,u,x,x,18%[46.1 µM],17%
COc1cc(/C=C/C(=O)N2CCOCC2)ccc1OCc1ccccc1,8%,-10%,-6.3%,u,4%,-45%,u,-15%
CCOC(=O)c1c(-c2ccccc2)csc1NC(=O)CCN1C(=O)c2ccccc2C1=O,12%,x,0.0%,-1%,-20%,u,10%,1%
CCS(=O)(=O)N1CCc2cc(C(=O)NCc3ccc(C)cc3)ccc21,x,x,-4.0%,-25%[46.1 µM],2%,x,-4%[46.1 µM],-6%
COC(=O)CCCC1=CC2=C(c3ccccc3)C(=O)C(C)(OC(=O)C3CCCC3)C(=O)C2=CN1Cc1ccc2c(c1)OCO2 (stereo not given),2%,-7%,x,-5%&-5%[14.2 µM],x,3%,x,-6%
O=C(O)CCC(=O)N1CCN(c2nc3ccccc3s2)CC1,2%,-1%,-4.1%,0%,-6%,-9%,22%,5%
O=C(Nc1ccccc1)c1ccccc1OCc1cccc([N+](=O)[O-])c1,12%,10%,-2.2%,-36%,-2%,-7%,2%,0%
COc1ccc(CNC(=O)CSc2nnnn2Cc2ccccc2)cc1,10%,23%,1.9%,-28%[46.1 µM],-2%,-8%,-9%,-3%
COc1ccc(OC)c(Nc2nc(-c3cccs3)cs2)c1,-18%,-12%,-2.7%,-1%,u,u,8%,x
CCCC(=O)NC(Nc1cc(C(F)(F)F)ccc1Cl)C(Cl)(Cl)Cl (stereo not given),-7%,4%,-7.7%,u,5%,-17%,0%,0%
Cc1c(CC(=O)NCCc2ccccc2F)c(=O)oc2cc(O)c(Cl)cc12,x,x,-30%,19%[46.1 µM],u,x,-3%[46.1 µM],-15%
N#Cc1c(NC(=O)CCC(=O)O)sc2c1CCCC2,2%,-6%,-0.7%,4%,4%,-1%,0%,0%
COCCn1c(CN2CCN(c3ccc(OC)cc3)CC2)nc2c1c(=O)n(C)c(=O)n2C,3%,10%[3.69 µM],1.2%,-8%,10%,0%,-1%,-12%
CC1CN(C(=O)Cn2cnc3c2c(=O)n(C)c(=O)n3C)CC(C)O1 (stereo not given),2%,4%,-0.7%,-1%,0%,9%,u,-1%
O=C(Nc1ccsc1C(=O)O)c1ccc(Cl)cc1,-5%,-12%,x,-16%,x,-38%,u,25%
N#Cc1c(/N=C/c2cc(Br)cs2)sc2c1CCC2,x,-8%,x,16%,x,x,21%,44%[activator]
Cc1ccc(S(=O)(=O)N2CCOCC2)cc1C(=O)Nc1c(C)n(C)n(-c2ccccc2)c1=O,7%,3%,3.2%,15%&15%,12%,-1%,-18%,4%
COc1ccc([N+](=O)[O-])cc1NC(=O)CC(C)c1ccccc1 (stereo not given),-11%,-4%,-0.7%,-11%,-6%,-17%,-2%,-7%
CC(OC(=O)c1ccc(S(=O)(=O)N2CCOCC2)cc1)c1ccccc1 (stereo not given),3%,1%,x,-4%,x,x,u,-11%
CN(CC(=O)Nc1cccc(F)c1)C(=O)CN1C(=O)NC2(CCCCC2)C1=O,4%,-9%,x,-2%[46.1 µM],x,x,-2%,0%
O=C(CCCN1C(=O)/C(=C/c2ccco2)SC1=S)Nc1ccccc1,-8%,u,-12%,-19%,-10%,12%,-14%,-21%
O=C(Nc1ccccc1)c1ccco1,-1%,-10%,x,x,x,4%,x,35%[activator]
COc1ccc(CSc2nnnn2-c2ccc(O)cc2)cc1F,-1%,-2%,x,u,x,2%,u,-21%
COc1ccccc1N1CCN(C(=O)c2sc3ncnc(N4CCN(c5ccccn5)CC4)c3c2C)CC1,1%,u,x,u,x,-51%,u,u
COc1ccc(-c2cc(C(F)(F)F)nc(SCC(=O)N(C)Cc3cn(C)nc3C)n2)cc1OC,22%,4%,-16%,u,u,-4%,u,-19%
COc1ccc(Nc2nc(-c3sc(NC(C)=O)nc3C)cs2)cc1,3.2µM*,x,-3.1%,-2%,5%,16%,x,x
C=C1C(=O)C2=CC1CCC(=O)C1(C)CCC(OC(C)=O)C(C)(C)C1CC2O (stereo not given),x,-11%,x,u,x,x,13µM*,7.9µM*
CCCN(CCC)CCNC(=O)c1cc2c(=O)n(C)c3ccccc3c2n1C,4%,-7%,16µM*,x,u,-6%,x,-8%
O=C1CC(C(=O)N2CCc3ccccc32)CN1c1cccc(C(F)(F)F)c1 (stereo not given),0%,31%,x,-10%,x,x,2%,0%
COc1ccc(C(=O)NCC(c2ccc3c(c2)OCO3)N2CCN(c3ccc(F)cc3)CC2)cc1 (stereo not given),x,x,-1.0%,x,2%,x,x,u
c1ccc(CNc2nc(-c3cccs3)nc3ccccc23)cc1,-81%,3%,-11%,7%&7%,-21%,-43%,4%,u
COc1ccc(C(=O)O/N=C(\N)c2ccccn2)c(OC)c1,-1%,-26%,x,u,x,-46%,u,-57%
CC1CCN(S(=O)(=O)c2ccc(Br)s2)CC1,-8%,14%,-3.4%,10%,-15%,-6%,-5%,25%
COc1ccc(N/C(=N\c2nc(C)cc(C)n2)NC(=O)C(C)C)cc1OC,-2%,-4%,2.9%,8%,u,-8%,-9%,-13%
Fc1cccc(Cl)c1Cn1nnc(-c2ccc(N3CCOCC3)cc2)n1,-1%,-5%,-6.7%,-17%,-3%,-8%,-2%,11%
CCOc1ccc2[nH]c(=O)c(CN(Cc3nnnn3CCc3ccccc3)CC3CCCO3)cc2c1 (stereo not given),1%,11%,-2.4%,u,u,-5%,-14%,-17%
COc1cc(/C=N/NC(=O)COc2ccc([N+](=O)[O-])cc2)ccc1OCC(=O)N1CCOCC1,-1%,-6%,x,7%[46.1 µM],x,1%,-4%,8%
CCC(C(=O)NCCC1=CCCCC1)n1nc(C)c2c(C)n(-c3ccccc3)nc2c1=O (stereo not given),0%,-4%,x,-22%[46.1 µM],x,-9%,2%[46.1 µM],-16%
CCOc1ccc(C(CC(=O)Nc2cc(C)c(Cl)cc2OC)N2Cc3ccccc3C2=O)cc1OC (stereo not given),x,x,-1.9%,x,-16%,x,-5%[46.1 µM],51%[activator]
Cc1ccccc1N1C(=O)c2cccc3c(N(C)CCO)ccc(c23)C1=O,9%,10%,-7.4%,u,1%,-35%,18%,x
CCOC(=O)c1c(N)sc(=S)c2c1CCC2,1%,-5%,-24%,2%&2%,-16%,19%,20%,-25%
Cc1ccc(S(=O)(=O)Nc2ccccc2C(=O)N2CCOCC2)cc1,6%,-8%,x,x,x,0%,x,-9%
CSc1nsc(SCC(=O)Nc2nncs2)n1,4%,1%,x,u,x,x,2%,-5%
CC(=O)OC(C(=O)NCc1ccc2c(c1)OCO2)c1ccccc1Cl (stereo not given),-5%,10%,1.6%,16%,6%,9%,13%,28%
CC(=O)c1c(C)[nH]c(C(=O)OCC(=O)N2CCN(S(=O)(=O)c3ccc(C)cc3C)CC2)c1C,25%,4%,-3.2%,-28%,u,-1%,u,20µM*
CCOC(=O)Cc1csc(NC(=O)c2ccc3c(c2)OCO3)n1,-3%,-15%,-2.0%,-4%,-4%,-16%,-12%,-9%
CCNC(=O)NC(=O)COC(=O)CCc1nc(=O)c2ccccc2n1C,0%,-15%,x,2%,x,x,26%[46.1 µM],-4%
COc1ccc(N2CCN(Cc3nc4c(c(=O)[nH]c(=O)n4C)n3CC(C)C)CC2)cc1,x,x,-0.9%,7%[46.1 µM],10%,x,3%[46.1 µM],-8%
Cc1c(NS(C)(=O)=O)c(=O)n(-c2ccccc2)n1C,-8%,0%,2.0%,1%,-9%,3%,u,7%
Cc1ccc(S(=O)(=O)N(Cc2cccc([N+](=O)[O-])c2)C(=O)N2CCN(C)CC2)cc1,8%,23%,x,13%,x,x,11%[46.1 µM],-5%

# Compound profiles (already shown). Values in the order: SARS PLpro yeast, RE007 growth inh, Cruzain inh Det, Marburg entry inh, Cruzain inh noDet, NS1 inh, LASV entry inh, StopGo reporter
# `CC(=O)OC(C(=O)NCc1ccc2c(c1)OCO2)c1ccccc1Cl` (stereo not given) as listed: -5%, 10%, 1.6%, 16%, 6%, 9%, 13%, 28%
# `COc1cc(/C=N/NC(=O)COc2ccc([N+](=O)[O-])cc2)ccc1OCC(=O)N1CCOCC1` as listed: -1%, -6%, x, 7%[46.1 µM], x, 1%, -4%, 8%

# Screening results as filed in PubChem BioAssay.
